Screening data (PubChem BioAssay)
HCMV UL50-53 inh – inhibitors of HCMV UL50-UL53 interaction, biochemical, HTRF | normalized percent inhibition | inhibition, % (no concentration beside the values) | actives 0.15% (n = 190,000) | AID 1918969, 2023;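 active means both replicates at 50% or more, plus weaker picks with an unusually low signal ratio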;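 further: stock transfer was 100 nL into about 20 µL; 0% = negative control wells and 100% = wells with untagged competitor protein; inactives centre near -12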
Sa growth 42C – S. aureus growth inhibition at 42 and 30 °C, primary screen, LtaS inhibitor project, RN4220, two temperatures; OD600, 20 h, 42 °C; stronger effect = lower value; relative growth, % (test concentration not listed); actives 0.53% (n = 170,000); AID 720641, 2013;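 active means growth at 42 °C up to 50% and 20 or more points under that at 30 °C, or under 10% at both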;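 further: 300 nL library stock went into each well; scaled to the means of positive and negative controls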
GIV Gai3 FP – inhibitors of GIV peptide binding to Galpha-i3, primary screen, biochemical, fluorescence polarization, FITC-GIV GBA peptide, rat Galphai3 | Guanine nucleotide-binding protein G(i) subunit alpha-3 (Rattus norvegicus), P08753 | percent of control (FP), % (test concentration not listed) | 90 min; stronger effect = lower value; scaled: aluminum fluoride 0%, vehicle 100% | actives 0.42% (n = 210,000);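 active means replicate mean at 85% of control or lower, very high polarization wells dropped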;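 further: wells of about 15 µL received 100 nL stock; the first replicate is given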
Target sequence (P08753 whole entry, looked up): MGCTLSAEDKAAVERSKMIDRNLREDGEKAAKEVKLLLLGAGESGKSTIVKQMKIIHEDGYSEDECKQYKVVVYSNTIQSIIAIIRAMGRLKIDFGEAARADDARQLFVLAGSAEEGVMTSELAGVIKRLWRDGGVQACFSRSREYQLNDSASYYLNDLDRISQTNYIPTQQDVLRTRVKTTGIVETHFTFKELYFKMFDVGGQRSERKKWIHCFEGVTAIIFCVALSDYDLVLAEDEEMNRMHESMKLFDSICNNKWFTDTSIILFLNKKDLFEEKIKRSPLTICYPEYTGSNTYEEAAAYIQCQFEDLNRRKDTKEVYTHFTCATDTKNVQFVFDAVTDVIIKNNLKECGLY
Sa growth 42C second temp – second read-out of Sa growth 42C, no call of its own (marks repeat the call); relative growth, %; measured here: growth at 30 °C;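 optical density after 20 h as mean of two plates; 100% = untreated growth and lower means inhibition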
The depositor's hits bear a star; / = not tested or not shown; & = joins results of further samples.

SMILES	HCMV UL50-53 inh	Sa growth 42C	Sa growth 42C second temp	GIV Gai3 FP
CC(NC(=O)CCn1cnc2onc(-c3cccc(F)c3)c2c1=O)c1ccccc1 (stereo not given)	-4	/	/	101
COc1cccc(N2CCN(C(=O)CCn3cnc4ccccc4c3=O)CC2)c1	-32	/	/	102
O=C(CN1C(=O)/C(=C\c2ccccc2Br)Oc2ccccc21)NC1CC1	/	123	85	103
CCCCN(CC)C(=O)c1cc2cc3ccc(C)cc3nc2o1	/	100	86	98
COc1ccccc1C(=O)NC1(C(F)(F)F)C(=O)Nc2c1c(=O)[nH]c(=O)n2CCc1ccccc1 (stereo not given)	-8	105	97	99
CCOC(=O)Cc1n[nH]c(CC(=O)OCC)n1	-2	83	107	/
CCc1[nH]c(=O)c(C#N)c2c1CCCC2	/	90	86	107
CNc1nc(C)nc(-c2ccccc2O)n1	-1	104	92	101
O=C(Cn1c(C(=O)N2CCOCC2)cc2sccc21)c1ccccc1	-1	106	81	103
CC1=C(C(=O)Nc2cccc(C(=O)N3CCC(Cc4ccccc4)CC3)c2)SCCO1	-15	/	/	98
Cc1ccc(S(=O)(=O)N2CCN(C(=O)c3nsc4ccc(C)cc34)CC2)c(C)c1	-20	/	/	102
CC(=O)NC(CC(=O)Nc1ccc(S(C)(=O)=O)cc1)c1ccccc1 (stereo not given)	-26	101	90	/
Cc1cc2n(n1)CCCN2Cc1ccc(C(=O)NC2CCCCC2)cc1	-20	99	94	100
COc1ccc(Br)cc1C(=O)Nc1cc2c(cc1SC(C)C)n(C)c(=O)n2C	-45	/	/	105
CCCCn1c(=NC(=O)c2cc3ccccc3o2)c(C(=O)OCC)cc2c(=O)n3ccccc3nc21	-5	100	103	109
O=C(c1ccc2c(c1)N(Cc1cccc(F)c1)C(=O)c1ccccc1S2)N1CCOCC1	/	97	78	102
CCOc1ccccc1NC(=S)NCC(C)CSc1ccc(C)cc1 (stereo not given)	/	80	34	104
COC(C)OC(=O)Cn1c(=O)sc2cccc(Cl)c21 (stereo not given)	2	103	71	/
CCN(C(=O)CSc1nnc(-c2ccco2)n1Cc1ccccc1)C1=CCCC1	2	94	95	/
CCN(CC(=O)Nc1ccc(OC)cc1)C(=O)c1ccc(C#N)cc1	-18	106	85	/
CCOc1ccc2nc(N3CCCC(C(=O)N4CCC(Cc5ccccc5)CC4)C3)sc2c1 (stereo not given)	-9	/	/	100
COc1ccc(S(=O)(=O)c2c(C)c(NS(=O)(=O)c3ccccc3)cc(C)c2O)cc1	-9	106	77	105
COc1ccc(CCN(C)CCc2ccc(OC)c(OC)c2)cc1OC	-8&-8&6	/	/	96
CCc1ccc(NC(=O)CC(c2cc(OC)c(OC)c(OC)c2)N2Cc3ccccc3C2=O)cc1 (stereo not given)	/	136	83	98
CCC1CCc2nc3sc(C(=O)NCCc4ccc(OC)cc4)c(N)c3cc2C1 (stereo not given)	-8	88	87	/
Cc1cc(=O)oc2cc3occ(-c4ccc(F)cc4)c3cc12	-19	90	87	103
O=C(Nc1ccc(Cl)cc1)Nc1nc(CC(=O)N2CCN(C(=O)c3ccco3)CC2)cs1	-27	85	36	104
Cc1cccc(C)c1OCc1nc2c3c4c(sc3ncn2n1)CCCC4	-10	/	/	100
CCNc1cc(N(C)C)c2noc3c2c1C(=O)c1ccccc1-3	/	105	59	-21*
Cc1cc(C)n2nc(CNC(=O)c3ccccc3Cl)nc2n1	11	106	89	101
CN(C(=O)CSc1cn(CC(=O)N2CCCCC2)c2ccccc12)c1ccccc1	/	123	89	107
CCc1ccc(-c2nnn(Cc3nn[nH]n3)n2)cc1	-3	85	109	97
O=C(c1ccccc1)c1ccccc1C(=O)N1CCOCC1	4	90	92	/
NN1CCN(Cc2cccc3ccccc23)CC1	-12	78	58	102
CN(C(=O)Cc1c(C(=O)O)[nH]c2ccccc12)c1ccccc1	1	103	98	110
Cn1c(=O)c2sccc2n2c(SCc3ccc(Cl)cc3)nnc12	5	/	/	106
CSc1cc(-c2ccccn2)nc(C(C)(C)C)c1	-20	74	87	108
CCCNC(C(=O)Nc1cc(C)ccc1C)c1ccccc1 (stereo not given)	-8	87	90	/
CN(C)c1ccc(CNC2CCCCC2)cc1	-16	91	80	97
O=c1[nH]c(-c2ccc3nsnc3c2)nc2ccccc12	-50	95	69	112
COc1ccc(-c2cn3cccnc3n2)cc1NC(=O)Nc1ccc(Cl)cc1	/	123	67	102
CCn1c(=N)n(CC(O)COc2cccc(C)c2)c2ccccc21 (stereo not given)	9	95	93	103
COc1cc(C2CC(=O)C3=C(C2)Nc2onc(C)c2C3c2cccc(C)c2)ccc1O (stereo not given)	-23	/	/	108
CNCc1nonc1C	-12	84	92	99
COc1ccc(C(=O)NCC(=O)n2nc(C)cc2C)cc1	-24	91	84	97
Cc1ccc2c(c1)C1CN(C)CCC1N2C(=S)NC(=O)c1ccco1 (stereo not given)	-6	91	83	/
O=C(Cc1cccc2ccccc12)Nc1ccc(S(=O)(=O)N2CCCC2)cc1	-16	110	100	/
CCc1nnc2n1NC(c1ccccc1)C(C(=O)Nc1ccc(C)cc1C)S2 (stereo not given)	1	/	/	106
Cc1cc(C)c(C2=Nn3c(C)nnc3SC2C)cc1C (stereo not given)	-13	92	79	/
CCS(=O)(=O)NCC1COC2(CCCCC2)O1 (stereo not given)	-8	92	92	101

Additional compounds follow.
SMILES	HCMV UL50-53 inh	Sa growth 42C	Sa growth 42C second temp	GIV Gai3 FP
COC(=O)c1cc2ccsc2n1CC(=O)Nc1ccccc1Cl	-17	/	/	101
O=C(Cn1c(COc2ccccc2)nc2ccccc21)NCC1CCCO1 (stereo not given)	-24	121	89	/
COc1ccc2[nH]c3c(=O)n(Cc4ccc(C(=O)NCc5cccnc5)cc4)c(=S)[nH]c3c2c1	/	93	90	95
COCc1nc(SC)[nH]c(=O)c1C	0	112	91	97
COc1ccc(S(=O)(=O)NCCn2c(-c3ccncc3)nc3cccnc32)cc1	-20	/	/	102
O=C(NCc1ccco1)/C(=C/C=C\c1ccccc1)NC(=O)c1ccccc1	-24	92	85	/
C1C2OC3CC4C1C1CC4C3C21 (stereo not given)	-31	96	90	98
Cc1ccc(CSc2n[nH]c(C(F)(F)F)n2)cc1	6	73	34	93
O=C(COc1ccc2ccccc2c1)Nc1ccc(NC(=O)c2ccco2)cc1	8	90	88	97
COc1ccc(OCC(=O)NCC(c2ccc(OC)cc2)N2CCOCC2)cc1 (stereo not given)	1	90	93	107
CCC(C(=O)Nc1ccc(C)c(C)c1)n1c(=O)c(C(F)(F)F)nc2ccccc21 (stereo not given)	/	84	90	106
O=C(N1CCOCC1)C12CC3CC(C1)CC(C(=O)N1CCOCC1)(C3)C2	/	106	109	108
Cc1cccc(C)c1OCCCCn1c(C2CC(=O)N(c3ccc(F)cc3)C2)nc2ccccc21 (stereo not given)	0	86	75	116
CC(C)Cn1cnc2nc(CSc3ccccc3NC(=O)Nc3ccccc3)cc(=O)n21	-16	/	/	99
CCCCOc1ccc(-c2cc3c(=O)n(CC(=O)Nc4ccc(Br)cc4)ccn3n2)cc1	-16	/	/	100
CCn1ccc2cc(S(=O)(=O)N3CCCN(C(=O)Nc4ccc(C)cc4Cl)CC3)ccc21	/	76	88	95
Nc1c(C(=O)Nc2cccc(C(F)(F)F)c2)c2ccccn2c1C(=O)c1ccccc1	0	99	94	98
O=C(NC(=O)N1CCOCC1)c1nnc(-c2ccccc2)o1	-44	90	85	105
COc1ccccc1OCc1nc(C#N)c(N(C)C)o1	/	93	73	103
O=C(Nc1cccc(F)c1)c1ccc(-n2nnc3cccnc32)cc1	-38	/	/	121

5 compounds picked at random from those above, as already listed:
SMILES	HCMV UL50-53 inh	Sa growth 42C	Sa growth 42C second temp	GIV Gai3 FP
CCC(C(=O)Nc1ccc(C)c(C)c1)n1c(=O)c(C(F)(F)F)nc2ccccc21 (stereo not given)	/	84	90	106
CCCCOc1ccc(-c2cc3c(=O)n(CC(=O)Nc4ccc(Br)cc4)ccn3n2)cc1	-16	/	/	100
CC(C)Cn1cnc2nc(CSc3ccccc3NC(=O)Nc3ccccc3)cc(=O)n21	-16	/	/	99
O=C(N1CCOCC1)C12CC3CC(C1)CC(C(=O)N1CCOCC1)(C3)C2	/	106	109	108
COc1ccccc1OCc1nc(C#N)c(N(C)C)o1	/	93	73	103

The main list resumes, starting 5 compounds before the break.
SMILES	HCMV UL50-53 inh	Sa growth 42C	Sa growth 42C second temp	GIV Gai3 FP
CCn1ccc2cc(S(=O)(=O)N3CCCN(C(=O)Nc4ccc(C)cc4Cl)CC3)ccc21	/	76	88	95
Nc1c(C(=O)Nc2cccc(C(F)(F)F)c2)c2ccccn2c1C(=O)c1ccccc1	0	99	94	98
O=C(NC(=O)N1CCOCC1)c1nnc(-c2ccccc2)o1	-44	90	85	105
COc1ccccc1OCc1nc(C#N)c(N(C)C)o1	/	93	73	103
O=C(Nc1cccc(F)c1)c1ccc(-n2nnc3cccnc32)cc1	-38	/	/	121
O=C(Nc1cccnc1)c1cc(-c2ccccc2)on1	-1	96	96	/
Cc1ccc(S(=O)(=O)c2cnccn2)cc1	-3	90	99	103
Cc1ccc(-c2cc3c(=O)n(Cc4nc(-c5ccc(F)cc5)no4)ccn3n2)cc1	-23	/	/	107
O=C(COc1ccccc1Cl)Nc1nc2c(s1)CCCC2	-11	114	71	101
COc1cc(-c2noc(-c3ccccc3C)n2)ccc1OCC(=O)NCc1ccc(C)cc1	-16	/	/	108
Fc1ccc(-c2nnc3ccc(N4CCN(c5ccccc5)CC4)nn23)cc1	-23	/	/	98
O=C1CC(N2CCN(Cc3ccccc3)CC2)C(=O)N1Cc1ccccc1 (stereo not given)	-33	94	107	105
Cc1[nH]c(-c2ccc(F)cc2)cc1C(=O)N1CCCCC1	/	75	81	103
Cc1cccn2c(=O)cc(COc3cccc(NC(=O)c4ccccc4F)c3)nc12	/	118	97	103
CCCCn1nc(C(=O)N(C)CC(=O)Nc2ccc(F)c(F)c2F)ccc1=O	-16	109	95	/
CC1(c2ccc3c(c2)OCO3)NC(=O)N(CN2CCN(S(=O)(=O)c3ccccc3C#N)CC2)C1=O (stereo not given)	-32	79	91	/
CCN(CC)S(=O)(=O)c1ccc2c(c1)nc(CCC(=O)N1CCN(c3ccccc3)CC1)n2CC	-10	102	91	/
O=C(COc1ccc(S(=O)(=O)N2CCOCC2)cc1)Nc1ccccc1C(F)(F)F	-12	107	100	105
COc1ccc(-c2cc(=O)c3c(OC)c(OC)c(OC)c(OC)c3o2)cc1OC	-60&-132	90	78	/
Cc1cccc(C(=O)Nc2cc3c(cc2N2CCCCC2)n(C)c(=O)c(=O)n3C)c1	-9	121	85	105
COc1ccccc1C(c1c(O)cc(C)n(Cc2ccco2)c1=O)N1CCCCC1 (stereo not given)	/	94	85	99
Cc1c(C(=O)OC2CCC(C)CC2)[nH]c2c1C(=O)CC(c1ccccc1Cl)C2 (stereo not given)	-9	125	96	101
O=c1[nH]c(=S)[nH]cc1OCc1ccccc1	-24	70	75	105
COc1ccccc1NC(=O)CSc1nnc2c3cc(-c4ccccc4)nn3ccn12	-18	/	/	108
O=C(CSc1nnc(CCCN2C(=O)c3cccc4cccc(c34)C2=O)n1-c1ccccc1)NCc1ccccn1	-79	/	/	106
O=C(Oc1ccc2c3c(c(=O)oc2c1)CCC3)c1ccco1	-16	85	72	101
Cc1cc(C(F)F)n2ncc(C(=O)O)c2n1	-26	91	89	101
CC(=O)N1C(Nc2ccc(C)cc2)CCN1c1ccccc1 (stereo not given)	-46	74	90	104
COc1ccccc1Cn1cccc1C1=NC(C)CO1 (stereo not given)	-2	104	91	98
CCOC(=O)N1CCN(C(=O)CCc2nc3cc(Cl)ccc3n(Cc3ccccc3)c2=O)CC1	-29	97	95	/
CCN(c1ccccc1)S(=O)(=O)c1ccc(NC(=O)c2cc(=O)c3c(C)cc(C)cc3o2)cc1	-27	103	85	103
Nc1ccc(C(=O)N2CCCc3ccccc32)cc1	-3	101	107	112
CC(C(=O)Nc1ccccc1)N(C)Cc1ccc(OC(F)F)cc1 (stereo not given)	-38	82	85	/
Cc1cccc(-n2ncc3c(N4CCN(CCO)CC4)ncnc32)c1	/	104	91	98
Cc1ccc(C(=O)Nc2ccc3c(c2)CC(=O)N3C)cc1	-32	/	/	106
Cc1cc(OCCCN2CCCC2)ccc1Cl	-9	102	106	103
CCOc1ccc(NC(=O)CSc2nccn2C2CCCC2)cc1	/	107	89	101
CCOC(=O)c1c(C)oc(NC(=O)COC(=O)c2ccccc2Sc2ccccc2C#N)c1C#N	-30	75	82	/
O=C(Nc1ccc(N2CCOCC2)cc1)c1ccc(Nc2ccnc(-c3ccc(F)cc3)n2)cc1	-19	/	/	162
COc1ccccc1Nc1nc2ccc(C)cc2n2nnnc12	-19	/	/	74*
Cn1c(/C(C#N)=C(\O)c2ccc(F)cc2)nc2ccccc21	/	96	90	100
O=C(NCCCO)c1ccc(Cl)cc1	22	104	99	103
